Arbovirus inh: arbovirus infection inhibition; arbovirus infection cell-based antiviral screen; AID 1251; inhibition, % at 10 µM; 200,000 tested, 0.37% active;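 active = inhibition from about 30%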;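 also: bluetongue infection of BSR cells; cell survival read as ATP light after 72 h; 0% = infected wells without compound and 100% = uninfected wells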
Mtb growth: M. tuberculosis H37Rv growth inhibitors, H37Rv strain (AID 1626) | M. tuberculosis H37Rv growth inhibition; higher % means a stronger effect | inhibition, % at 10 µM; hits with a dose series show IC50 in µM | 220,000 tested, 0.95% active;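 active = confirmed in a dose series; inconclusive = inhibition above 80% but not taken into the dose series; inactive = below 80% or under 30% at every dose of the series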;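 also: bacteria incubated seven days before Alamar blue readout; 0% = bacteria only wells and 100% = bacteria with antibiotic wells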
Mtb bLac sens: beta-lactam sensitization of Mtb H37Rv | M. tuberculosis H37Rv growth with meropenem, percent inhibition; hits of this screen are not shown here | inhibition, % at 25 µM | 330,000 tested, 0.27% active | AID 434955;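 active = about 74% or more and at least 40 points above the plate without the antibiotic, then above 30% in a dose series; inconclusive = first-round hits that could not be retested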;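 also: growth measured after seven days incubation then overnight dye step; 0% = bacteria only wells and 100% = bacteria with antibiotic; twin plates without the antibiotic show which effects depend on it; some results filed as inactive read as strong as hits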
RecA splice inh: blocks M. tuberculosis RecA intein splicing; P9WHJ3; cell-free RecA intein splicing, fluorescence; inhibition, %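 (about 9 µM by stock and volumes)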; 290,000 tested, 0.75% active; AID 2221; in the data active = inhibition above about 30%; inconclusive = no clear call, values can overlap the other calls;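 also: 0% = vehicle wells and 100% = reference inhibitor control wells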
Target sequence (P9WHJ3 whole entry, looked up, canonical isoform): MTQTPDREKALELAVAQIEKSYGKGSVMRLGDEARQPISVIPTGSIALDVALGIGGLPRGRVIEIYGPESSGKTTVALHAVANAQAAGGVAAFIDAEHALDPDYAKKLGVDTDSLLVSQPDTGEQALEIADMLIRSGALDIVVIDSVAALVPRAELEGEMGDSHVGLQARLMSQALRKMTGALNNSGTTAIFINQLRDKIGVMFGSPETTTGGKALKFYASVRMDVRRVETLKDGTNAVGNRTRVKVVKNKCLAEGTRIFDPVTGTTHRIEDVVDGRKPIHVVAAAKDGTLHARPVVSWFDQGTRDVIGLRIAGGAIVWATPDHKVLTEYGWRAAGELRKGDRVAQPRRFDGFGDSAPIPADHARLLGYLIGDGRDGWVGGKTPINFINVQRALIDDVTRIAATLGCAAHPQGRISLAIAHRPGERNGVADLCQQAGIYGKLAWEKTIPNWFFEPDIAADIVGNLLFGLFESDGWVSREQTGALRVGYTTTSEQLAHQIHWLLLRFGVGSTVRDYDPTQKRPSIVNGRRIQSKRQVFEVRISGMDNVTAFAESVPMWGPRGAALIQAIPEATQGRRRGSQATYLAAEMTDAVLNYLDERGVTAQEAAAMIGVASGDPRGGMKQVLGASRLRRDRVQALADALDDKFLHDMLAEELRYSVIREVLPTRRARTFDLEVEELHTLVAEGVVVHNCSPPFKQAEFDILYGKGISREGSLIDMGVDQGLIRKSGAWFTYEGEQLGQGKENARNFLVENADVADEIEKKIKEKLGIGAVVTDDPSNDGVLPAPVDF
YopH inh: YopH (Yersinia) phosphatase inhibition | fluorescence Ex485/Em525 | 140,000 tested, 0.16% active | inhibition, %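 (about 10 µM by stock and volumes)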;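 active = inhibition of 50% or more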;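 also: controls were vehicle for no effect and minimum signal wells for full effect; inactives centre near -20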
Arbovirus inh repeat: also measured in Arbovirus inh; calls as there; inhibition, %; measured here: 10K subset replicate screen; many hits read low in the repeat;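 first of two repeat runs on a subset; 0% = infected and 100% = uninfected wells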
An asterisk follows results filed as active; ? = inconclusive; nt = no result given.

SMILES	Arbovirus inh	Mtb growth	Mtb bLac sens	RecA splice inh	YopH inh	others
NS(=O)(=O)c1ccc(NC(=S)N2CCC(O)CC2)cc1	6	3%	1	-2.9	nt
Cc1nc(N2CCOCC2)[nH]c(=O)c1CCC(C)C	0	-4%	-1	-0.8	0
Cn1c(=O)c(C(=O)Nc2ncccc2O)c(O)c2ccccc21	5	-10%	-1	-3.6	-15
COC(=O)c1cn(CC(=O)NCc2ccco2)c2ccccc12	-2	0%	-8	2.9	-25
CCOC(=O)Nc1cc(C(=O)OCC)c(C)nc1C	4	0%	-7	0.4	-20	Arbovirus inh repeat=5
O=C(O)CCCC(=O)Nc1ccc(Oc2ncnc3cc(Cl)ccc23)nc1	nt	-2%	-3	-0.6	nt
CCNC(=S)NNc1ccccc1	nt	2%	44	-1.9	nt
Cc1ccc(CN2CCN(Cc3cccn3-c3nccs3)CC2CCO)cc1 (centres undefined)	7	-1%	-2	-1.6	nt
CCOc1ccc(S(=O)(=O)c2c[nH]c3ccc(C)cc3c2=O)cc1	nt	nt	-3	1.4	nt
Cc1ccc(Nc2ccc(C(=O)NC3CCCCC3)cn2)cc1	nt	nt	-10	0.5	nt
O=C(NCc1ccccc1)c1ccc(Br)cc1	-3	-2%	1	0.2	nt
Cc1ccccc1NC(=O)CN1CCN(Cc2ccccc2)CC1	nt	nt	3	4.9	nt
CC1(C)C2CCC1(C)C(OC(=O)CNc1ccccc1)C2 (centres undefined)	nt	-8%	-12	-0.6	nt
CCOC(=O)c1c(CN(C)C)n(C)c2c(O)c(N=NC(N)=O)c3ccc(Br)cc3c12	nt	nt	58	-0.1	nt
Cc1ccccc1NS(=O)(=O)c1nnc(NC(=O)CC(C)C)s1	nt	nt	-5	0.3	nt
CCOC(=O)c1cnn(-c2cc(C)nc3c(-c4ccc(Cl)cc4)c(C)nn23)c1N	0	-5%	nt	nt	-37
COc1ccc(CN(CCC(c2ccccc2)C2CCOC(C)(C)C2)C(C)=O)cc1 (centres undefined)	-8	5%	0	4.4	-23
Cc1cc(C)nc(NS(=O)(=O)c2ccc(N/C=C/C(=O)c3ccc(Cl)c(Cl)c3)cc2)n1	-17	0%	-1	2.4	3
Cc1nn(-c2ccc([N+](=O)[O-])cc2)c2c1C(c1cccc(Br)c1)N1C(=N2)C(=O)Nc2ccccc21 (centres undefined)	4	73%	22	-7.6	-3
CCOC(=O)C1CSC2(CCC(c3ccccc3)CC2)N1 (centres undefined)	10	-1%	8	-1.1	nt
Fc1ccccc1N=C1NN=C(c2ccccc2)CS1	-21	8%	-1	9.9	nt
O=C(NCc1cccs1)C1CCCN1C(=O)Nc1ccc(F)cc1 (centres undefined)	nt	nt	9	-2.7	nt
C=CCN1C(c2ccc(Br)cc2)=CS/C1=C(/C#N)c1nnc(N2CCOCC2)n1-c1ccccc1	-18	13%	12	nt	-20
Cc1[nH]n2cnnc2c(=O)c1Br	nt	-1%	4	1.5	nt
COC(=O)c1c(-c2ccncc2)csc1NC(=O)c1ccoc1C	3	13%	?	-3.0	-21
C=CCn1c(COc2ccccc2)nnc1SCC(=O)Nc1ccc2c(c1)OCCO2	-5	-7%	-1	5.1	-46
O=S(=O)(NC1CCCCC1)c1ccc(Br)s1	nt	nt	2	3.3	nt
Cc1cccc(C)c1OCC(=O)N/N=C/c1ccc2c(c1)OCO2	-18	6%	8	2.5	-33
O=c1c(-c2ccccc2)cnc2n1CCS2	2	1%	-4	1.8	nt
O=C(NCCCn1cccn1)c1cc(COc2ccc(F)cc2Cl)on1	-2	8%	10	5.3	nt
Cc1ccc(C)c(NC(=O)c2cc(-c3ccccc3O)n[nH]2)c1	nt	nt	0	2.4	nt
CCC(C)N(C(=O)COC(=O)C1CCN(S(=O)(=O)c2ccc(C)c(C)c2)CC1)C1CCS(=O)(=O)C1 (centres undefined)	nt	nt	-9	-0.2	nt
CC(=O)c1ccc(NC(=O)Cn2cnc(S(=O)(=O)N3CCC(C)CC3)c2)cc1	nt	nt	-2	2.6	nt
Cc1nn2c(-c3ccc(S(=O)(=O)N4CCN(CCO)CC4)o3)nnc2c2ccccc12	nt	nt	5	1.0	nt
Cc1ccc2cc(C3CC(c4cccs4)=NN3S(C)(=O)=O)c(Cl)nc2c1 (centres undefined)	nt	7%	3	1.7	nt
COCCOC(=O)C1=C(N)OC2=C(C(=O)CC(C)(C)C2)C1c1ccncc1 (centres undefined)	5	-1%	-6	0.0	nt
CCn1nccc1C(=O)NC1=C(C#N)CCC1	-2	-7%	6	-0.3	-148
CC(C)c1ccc(S(=O)(=O)N2CCN(C(=O)C3CCCCC3)CC2)cc1	nt	nt	11	2.1	nt
Cc1ccc(OCC(=O)c2cc(C)n(C)c2C)c([N+](=O)[O-])n1	-7	1%	0	-4.9	-29
O=C(Nc1ccc(N2CCOCC2)cc1)Nc1ccc2nc(-c3ccco3)c(-c3ccco3)nc2c1	-26	8%	?	0.1	-22
COc1ccc([N+](=O)[O-])c(S(=O)(=O)c2ccccc2)n1	nt	3%	56	9.4	nt
O=S(=O)(c1cccc2cccnc12)N1CCOCC1	-1	-1%	-8	1.5	-17
CC(=O)NC(CSc1cc(C)nc2ccc(Br)cc12)C(=O)O (centres undefined)	nt	0%	-5	-0.9	nt
Cc1ccc(CNC(=O)CN(C(=O)C2(C)CC(=O)N=C3C=CC=CN32)c2ccc(F)cc2)cc1 (centres undefined)	nt	nt	-3	-1.6	nt
Nc1nc(NCCc2ccccc2)nc(NCCO)c1[N+](=O)[O-]	nt	nt	-2	-0.8	nt
COc1ccc(Br)cc1-c1nc(C)c(C(C)=O)n1O	-3	4%	6	-4.6	-35
NS(=O)(=O)c1cc(C(=O)NCC2CCCCC2)ccc1Cl	nt	nt	-3	0.5	nt
CCN(CC)c1cc(-c2ccccc2)ncn1	0	3%	-5	-2.0	-3
Cc1oc2c(C)c3oc(=O)c(CCC(=O)N[C@@H](CC(C)C)C(=O)O)c(C)c3cc2c1C	nt	nt	-7	-5.9	nt
O=c1c2ccccc2nc(/C=C/c2ccc([N+](=O)[O-])o2)n1CCCO	-39	?	100	2.1	-16

Overlap with the part before: four entries, followed by the next part.
SMILES	Arbovirus inh	Mtb growth	Mtb bLac sens	RecA splice inh	YopH inh	others
NS(=O)(=O)c1cc(C(=O)NCC2CCCCC2)ccc1Cl	nt	nt	-3	0.5	nt
CCN(CC)c1cc(-c2ccccc2)ncn1	0	3%	-5	-2.0	-3
Cc1oc2c(C)c3oc(=O)c(CCC(=O)N[C@@H](CC(C)C)C(=O)O)c(C)c3cc2c1C	nt	nt	-7	-5.9	nt
O=c1c2ccccc2nc(/C=C/c2ccc([N+](=O)[O-])o2)n1CCCO	-39	?	100	2.1	-16
Cc1ccc(CN2CCc3c(OCC(=O)Nc4cccc(C)c4C)cccc3C2=O)cc1	2	-3%	1	0.8	-36
CCOc1ccc(NC(=S)N2CCCC2)cc1	nt	nt	3	-1.5	nt
O=C(O)c1ccccc1C(=O)Nc1ccc(-n2nc(C(F)(F)F)cc2C(F)(F)F)cc1	nt	-13%	33	-2.4	nt
O=C(COC(=O)c1cccc(O)c1)Nc1nnc(-c2ccccc2)o1	nt	nt	33	-0.2	nt
O=C(NC(Cc1ccccc1)C(=O)NCc1ccccn1)c1ccco1 (centres undefined)	2	-5%	4	-1.1	-29
O=c1c2cnn(-c3ccccc3)c2ncn1CCc1ccccc1	-1	8%	?	0.3	-15
CC1(C)CC(=O)N(c2cccc(C(F)(F)F)c2)C(=O)C1	nt	nt	0	-1.5	nt
Cc1ccc(CCNC(=O)CCNS(=O)(=O)c2ccc3c(c2)c(=O)n(C)c(=O)n3C)cc1	-8	-1%	-16	-5.4	-32
CCC(=O)Nc1nc2nc(-c3ccccc3)cc(-c3ccccc3)n2n1	3	nt	-10	-4.9	-32
COc1ccc(-c2ccc(-c3noc(-c4ccccc4C)n3)c(OC)n2)cc1	-6	0%	92	0.3	-19
O=C(c1ccc(COc2ccc3ccccc3c2)o1)N1N=C(C(F)F)CC1(O)C(F)F (centres undefined)	8	1%	10	0.3	-13
Cc1ccnc(SCC(=O)c2cc3ccccc3o2)n1	0	1%	3	-0.1	nt
CCCCn1c(Cl)nc2c1c(=O)n(C)c(=O)n2C	3	1%	2	0.2	-31
CCSc1nnc(-c2ccccc2SC)o1	6	-2%	3	0.4	nt
O=C(COC(=O)C(O)C(O)C(=O)OCC(=O)c1ccc(C(F)(F)F)cc1)c1ccc(C(F)(F)F)cc1 (centres undefined)	nt	1%	-4	0.4	nt
COc1ccc(/C=C2\SC(=S)N(NC(=O)c3ccncc3)C2=O)cc1OC	-4	-9%	-8	-4.7	nt
Cc1cccnc1NC(=O)c1ccc([N+](=O)[O-])o1	-11	2%	3	-0.3	5
O=C(CCCCn1c(=O)c2ccccc2n(Cc2ccc(Cl)cc2)c1=O)NCc1ccco1	-14	-1%	-6	0.4	-27
COc1ccc(-c2cc(=O)oc3cc(OCC(=O)N4C[C@H]5C[C@@H](C4)c4cccc(=O)n4C5)ccc23)cc1	nt	nt	-1	17	nt
COc1ccc(OC)c(C2C(C(=O)N(C)C)=C(C)Nc3nc4ccccc4n32)c1 (centres undefined)	-7	-13%	-2	-0.5	-27
CCc1noc(C)c1C(=O)Nc1cc(Cl)ccc1-n1cncn1	nt	nt	0	0.3	nt
O=C1CCCc2c1[nH]c1ccc(Br)cc21	6	0%	2	0.7	-44
CCOc1ccc(C(=O)N2CCN(C(=O)c3ccco3)CC2)cc1OCC	-2	-7%	-14	0.2	-20
Cc1cc(O)c2c(c1)OC(C)(C)C1=C2CC(C)CC1 (centres undefined)	nt	nt	4	2.0	nt
Cc1csc(NC(=O)CCNC(=O)c2ccc([N+](=O)[O-])cc2)n1	-1	9%	2	-3.9	-2
COCCOCC(O)CN1CCN(c2ccccc2)CC1 (centres undefined)	-5	9%	1	-1.2	-9
S=C(NCCc1ccccc1)Nc1ccc(Br)cc1	12	27%	-2	8.0	-21
COc1ccc(C(=O)NNC(=O)Nc2ccc(C)cc2)cc1	8	-1%	-4	-0.6	-18
CC(=O)Nc1ccc(C(=O)Nc2nc(-c3cccnc3)cs2)cc1	25	-3%	-4	1.8	nt
O=C(NCc1cccnc1)c1ccc(COc2ccccc2Cl)o1	0	-4%	-1	2.6	nt
CCN(CC(=O)NCCc1ccccc1)S(=O)(=O)c1ccc(Br)cc1	-1	13%	8	0.0	-33
Cc1ccc(S(=O)(=O)n2cnc3ccccc32)cc1[N+](=O)[O-]	nt	nt	13	-1.3	nt
O=C1NCCN1C(=O)c1cccc(Cl)c1	3	nt	7	nt	-34
Cc1cc(NC(=O)c2c(F)cccc2Cl)n(-c2nc3ccccc3[nH]2)n1	-30	16µM*	-4	14	-16
O=C(CCCOc1ccccc1)Nc1ccc(Cl)cn1	2	9%	52	-0.5	nt
CC(=O)NCCn1c(SCC(=O)c2ccc(Cl)cc2)nc2ccccc2c1=O	10	-2%	5	2.4	-27
COc1ccc(Nc2nccc(-c3ccc([N+](=O)[O-])cc3)n2)cc1	nt	nt	2	-0.6	nt
CCOc1ccc(C(=S)N2CCCC2)cc1OC	-1	34%	4	2.0	-9
Cn1nc(-c2ccccc2)c(CN2CCN(c3ncccn3)CC2)c1Cl	-1	-4%	7	nt	nt
COc1ccc(OC)c(-c2csc(NC(=O)C3CSC4(C)CCC(=O)N34)n2)c1 (centres undefined)	nt	nt	-6	2.1	nt
COc1cc(O)cc(O)c1C(=O)/C=C/c1ccccc1	-19	-2%	2	1.7	nt
CCCCn1c(N)c(N(CCOC)C(=O)COc2ccc(C(C)=O)cc2)c(=O)[nH]c1=O	nt	nt	-10	0.6	nt
COc1ccc(Cc2nnc(NC(=O)C(C)C)s2)cc1	nt	1%	-1	0.5	nt
CCNC(=O)NC(=O)C(C)OC(=O)CCCc1nc2ccccc2s1 (centres undefined)	8	-9%	1	-2.6	nt
O=C(CCN1CCOCC1)N1CCCC(Nc2ccc(F)cc2)C1 (centres undefined)	nt	nt	-9	0.0	nt
CCOc1ccc(CCNC(=O)CS(=O)Cc2nc(-c3ccccc3C)oc2C)cc1OCC (centres undefined)	nt	nt	-3	0.3	nt
CO/N=C/c1ccc(N2CCN(C(=O)c3ccc(Cl)cc3Cl)CC2)c([N+](=O)[O-])c1	-9	13%	7	4.9	-27
CCc1cc(=O)oc2cc(C)cc(OCC(=O)C(C)(C)C)c12	-2	1%	6	0.5	nt
CC(=O)N(CCCCN1C(=O)c2ccccc2C1=O)c1ccc(C)cc1	-1	-1%	4	nt	-34
Cc1oc2cc3oc(=O)c(CCC(=O)NCc4ccccn4)c(C)c3cc2c1C	nt	nt	-4	-2.0	nt
Cc1ccc(S(=O)(=O)NNC(=O)Nc2cccc(F)c2)c(C)c1	nt	nt	8	-2.2	nt

Some of the compounds tested, so the mix of outcomes need not match the whole.
